ugtP null kill – growth inhibition of S. aureus ugtP deletion strain. S. aureus RN4220 ugtP deletion, OD600 growth, 16 h; some inactives read as strong as hits. growth inhibition, % (test concentration not listed). 330,000 tested, 0.54% active;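 active = z-score under -3 and OD600 up to 0.15 on both plates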;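 note: plate controls were untreated wells for no effect and antibiotic for full effect; wells of about 80 µL received 100 nL stock; the first replicate is given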
BJeLR lethal – BJeLR cell viability loss. 300,000 tested, 0.17% active. inhibition, % (concentration not given with the values). BJeLR (HRASV12) viability, CellTiter-Glo ATP luminescence, 48 h; reference of the scale not given here. AID 1554;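 active = replicate mean above 50%; inconclusive = above 50% but judged a plate artefact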;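 note: 50 nL library stock added to about 25 µL; numbers are from one replicate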
Mtb hypoxia inh – inhibitors of hypoxia-regulated fluorescent reporter in Mycobacterium tuberculosis; M. tuberculosis hypoxia-regulated fluorescent reporter, fluorescence; fluorescence inhibition, % (test concentration not listed); 300,000 tested, 0.1% active; AID 1159583;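 active = 35 to 45% if threefold the growth effect, above 45% if 1.5-fold the growth effect; inactive = the rest, general growth blockers included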;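 note: wells of about 50 µL received 100 nL stock; 0% = vehicle wells and 100% = reference inhibitor wells; whole bacteria with a GFP reporter of the hypoxia response; strong numbers were not always called active; many hits fall short of the cut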
PrP UTR inh – inhibition of PrP 5' UTR reporter expression; cell-based PrP 5' UTR mRNA reporter, plate reader; inhibition, % (concentration not given with the values); 340,000 tested, 0.35% active; AID 488862;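 active = every replicate at 50% or more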;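 note: 0 = median of the neutral control wells; tested in H4 reporter cells; numbers are from one replicate; inactives centre near -14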
Sa RN4220 lethal – kills Staphylococcus aureus RN4220; AID 1259311; S. aureus RN4220 growth, OD600, 16 h; inhibition, % (test concentration not listed); 330,000 tested, 0.33% active;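 active = z-score of -3 or lower and OD600 up to 0.18 on both plates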;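 note: plate controls were untreated cells for no effect and reference antibiotic for full effect; stock transfer was 100 nL into about 80 µL; one replicate is shown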
Bead autofluor – compound fluorescence in toxin protease inhibitor counterscreen; 360,000 tested, 3.1% active; compound autofluorescence counterscreen, microsphere flow cytometry; stronger effect = higher value; fluorescence intensity (no concentration beside the values);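 active = at least 3 SD above the mean of all compounds, about 16000 in these data; inconclusive = too few beads counted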;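 note: 100 nL of 1 mM stock went into each well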
Mtb hypoxia inh growth – further read-out of Mtb hypoxia inh, marked with its call; growth inhibition, %; measured here: M. tuberculosis growth (absorbance);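 0% = vehicle and 100% = reference antibiotic; read after six days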
Active calls of the source: *; ? = inconclusive; nt = no result given.

Values in the order: ugtP null kill	BJeLR lethal	Mtb hypoxia inh	Mtb hypoxia inh growth	PrP UTR inh	Sa RN4220 lethal	Bead autofluor
> COCCNS(=O)(=O)c1ccc2c(c1)C(=NO)c1cc(S(=O)(=O)NCCOC)ccc1-2
 : 12	-12	-2	-1	-12	2.1	4341
> Cc1cc(/C=N/NC(=O)c2ccncc2)c(C)n1-c1cccc(C(F)(F)F)c1
 : nt	-12	nt	nt	-37	nt	6046
> CCOc1ccc(-c2ccc(SCC(=O)N3CCOCC3)nn2)cc1
 : -2	3	0	9	-32	3.4	4295
> CCON=C(C)c1c(O)cc(C(C)C)n(-c2ccccc2)c1=O
 : 4	nt	7	7	nt	1.0	nt
> COc1ccc(OCC(=O)N2CCC3(CC2)CC(=O)c2ccccc2O3)cc1
 : 8	-1	9	4	-10	1.9	?
> COC(=O)C1CCCN1S(=O)(=O)c1ccc2ccccc2c1 (configuration not stated)
 : 27	1	-1	-9	13	-5.5	15401
> COC(=O)c1ccc(-c2ncc[nH]2)cc1
 : 4	2	-4	0	-23	4.0	3717
> COc1ccc(-c2c(NC(=O)C(C)C)n(C)c3ccccc3c2=O)cc1
 : 8	6	3	4	-36	3.5	11511
> COc1ccc(C(CC(=O)N2CCC3(CC2)OCCO3)NS(=O)(=O)c2ccc(F)cc2)cc1 (configuration not stated)
 : 1	0	nt	nt	-28	0.1	2540
> Cc1ccccc1NC(=O)c1c([N+](=O)[O-])c(C(C)(C)C)nn1C
 : 8	-6	2	-4	-16	12	2112
> Cc1cnccc1CN(C)C(=O)CC1C(=O)NCCN1CC1CCCCC1 (configuration not stated)
 : -3	3	1	6	-13	0.7	4284
> O=C(CSc1nnc(NC(=O)c2c(F)cccc2F)s1)NCc1ccco1
 : 18	-9	10	-2	2	0.6	nt
> CCC(C)NC(=O)CSc1nc2c(sc(=S)n2-c2cc(Cl)ccc2OC)c(=O)[nH]1 (configuration not stated)
 : -3	-1	-5	0	-22	8.3	3660
> CC1=CCC(C(=O)O)(C(=O)NN=Cc2cccs2)C(c2ccc([N+](=O)[O-])cc2)C1 (configuration not stated)
 : -8	nt	-10	10	nt	-3.1	nt
> Cc1cc[n+](CC(=O)c2cc3ccccc3oc2=O)cc1
 : -7	5	6	1	-26	4.5	10204
> O=C(Cc1c[nH]c2ccccc12)NCc1ccccc1F
 : 5	-17	13	7	-30	3.0	5907
> CC1CCN(Cc2c(C(=O)N/N=C/c3ccc(OC(C)C)cc3)nnn2-c2nonc2N)CC1
 : nt	6	nt	nt	2	nt	3465
> Cc1cc(=O)[nH]c(SCC(=O)/C=C2\N(C)c3ccccc3C2(C)C)n1
 : -5	-11	7	5	-111	0.6	8937
> COC(=O)COc1ccc(S(=O)(=O)NCc2ccco2)cc1Cl
 : -4	-9	3	10	6	5.2	4429
> O=C(NN=Cc1ccc(OCC(=O)N2CCOCC2)cc1)c1ccccc1Cl
 : -1	nt	-10	-3	nt	-2.1	nt
> COc1ccc(S(=O)(=O)N2CCCCC2)cc1NC(=O)Cc1cccc(C(F)(F)F)c1
 : 2	nt	-5	-13	-7	2.4	?
> N#Cc1c(-c2cccnc2)c2c([nH]c1=O)-c1ccccc1OC2
 : 6	6	10	1	-12	9.0	3869
> Oc1ccc(-c2nnc(Nc3ccccc3)c3ccccc23)cc1
 : 4	12	11	-4	-3	2.3	4550
> CC(OC(=O)c1nsc(Cl)c1Cl)C(=O)NC(C)(C)C (configuration not stated)
 : 6	11	5	10	-5	1.5	4368
> CC(=O)c1ccc(NC(=O)Cn2cnc(S(=O)(=O)N3CCCC3)c2)cc1
 : 4	-1	1	5	-17	0.4	5369
> Cc1ccccc1CSc1[nH]c(=O)ncc1C
 : 3	-2	-4	3	-17	2.3	5303
> Oc1cccc(NC(=S)N=Nc2c(O)[nH]c3ccc(Br)cc23)c1
 : -22	3	5	4	-12	-0.3	6111
> CCOC(=O)c1nc2ccccc2c(=O)n1-c1cccc(C)c1
 : 11	4	nt	nt	-40	1.6	4997
> CCOc1ccc(NC(=O)NC23CC4CC(CC(C4)C2)C3)cc1
 : -7	1	25	40	-21	0.1	3310
> CCNC(=O)c1ccccc1NC(=O)c1cccc(S(=O)(=O)N2CCOCC2)c1
 : nt	-3	nt	nt	-14	nt	9531
> O=C(c1ccc(Cl)cc1)C1CCCN(Cc2cccn2-c2ccccn2)C1 (configuration not stated)
 : 3	8	3	14	-19	9.2	4138
> CN(C)C(=O)C12CCC(C)(C(=O)C1Br)C2(C)C (configuration not stated)
 : 13	1	4	-6	-5	3.7	3165
> C[C@@H]1CC[C@@]2(O[C@@H](CCO)C[C@H](O)[C@H]2O)O1
 : nt	3	nt	nt	-15	nt	3972
> Cc1ccccc1NC(=S)NC(=O)Cc1ccc(Cl)cc1
 : 67	-3	5	1	-8	2.0	4260
> Cc1nn(-c2ccccn2)c2c1C(c1ccsc1)C1=C(CCCC1=O)N2 (configuration not stated)
 : -4	9	4	8	1	-17	2498
> CCCn1c(=O)c2[nH]c(C3CCCC3)nc2n(CCC)c1=O
 : -5	-7	-2	-4	-12	2.9	4288
> CC(=O)c1cccc(NC(=O)CN2C(=O)c3ccccc3C2=O)c1
 : 2	-9	8	1	-26	2.7	3803
> COC(=O)c1sc2ncccc2c1OCc1cccc(Cl)c1
 : -9	4	-1	3	0	9.8	6164
> CC1=C(C(=O)OCc2ccccc2)C(c2ccsc2)C(C#N)=C(N)O1 (configuration not stated)
 : -4	0	7	4	-3	3.9	3228
> CCOC(=O)c1[nH]c(C)c(C(=O)OCCN2C(=O)c3ccccc3C2=O)c1C
 : -20	1	3	6	-13	8.4	20341*

Brought forward from above: three compounds, followed by the next part.
Values in the order: ugtP null kill	BJeLR lethal	Mtb hypoxia inh	Mtb hypoxia inh growth	PrP UTR inh	Sa RN4220 lethal	Bead autofluor
> COC(=O)c1sc2ncccc2c1OCc1cccc(Cl)c1
 : -9	4	-1	3	0	9.8	6164
> CC1=C(C(=O)OCc2ccccc2)C(c2ccsc2)C(C#N)=C(N)O1 (configuration not stated)
 : -4	0	7	4	-3	3.9	3228
> CCOC(=O)c1[nH]c(C)c(C(=O)OCCN2C(=O)c3ccccc3C2=O)c1C
 : -20	1	3	6	-13	8.4	20341*
> COc1cc(/C=C/C(=O)OCC(=O)NC(=O)NC(C)C)ccc1OCC#N
 : 8	1	6	7	-22	4.9	10138
> CC(Oc1ccc2c(c1)c1ccnc3c4ccccc4c(=O)n2c13)C(=O)NCCN1CCOCC1 (configuration not stated)
 : -5	0	nt	nt	6	-1.1	4175
> Cc1nc(NCCc2ccccc2)c(C#N)c(C)c1[N+](=O)[O-]
 : -7	3	1	-6	-7	2.5	2326
> Cc1cccc(CCN2C(N(C)C)=NCC2CC(C)C)c1 (configuration not stated)
 : -1	nt	4	6	nt	6.2	nt
> C/C(=N\NC(=O)Nc1ccccc1)c1ccc2ccccc2c1
 : nt	-2	nt	nt	-11	nt	2635
> CN/C=C1\C(=O)C(C)(C)Oc2ccc3ccc(=O)oc3c21
 : -4	1	nt	nt	-21	2.3	2838
> O=C(CN1CCCCCC1)N/N=C/c1ccc2ccccc2c1
 : nt	8	nt	nt	-10	nt	3701
> Cc1cc(C)cc(OCC(=O)N2CCN(c3ncccn3)CC2)c1
 : 1	nt	7	-2	-20	1.3	4614
> N#Cc1ccc(-c2nnnn2-c2ccc3c(c2)OCO3)cc1
 : 4	24	nt	nt	4	0.8	3426
> CC(=O)C1=C(O)C(=O)N(Cc2ccco2)C1c1ccccc1 (configuration not stated)
 : 7	-16	3	3	-19	3.7	11197
> COc1ccc(/C=C2\Sc3ccc(C(=O)NC4CC4)cc3N(C)C2=O)cc1OC
 : -15	1	-3	6	-5	1.8	5459
> Cc1nnc(SCC(=O)NCCOc2ccc(Cl)cc2)n1-c1ccccc1
 : 0	13	3	13	-8	4.3	2432
> CCN(CC(=O)Nc1c(F)cccc1F)C(=O)c1cn2ccccc2n1
 : 9	nt	7	-2	-21	1.3	6207
> COc1cc(CCC(=O)OCC(=O)Nc2sccc2C(N)=O)cc(OC)c1OC
 : 0	nt	5	-1	-6	0.4	5066
> CCOc1cccc(CN2CCC(n3nccc3NC(=O)C3CC3)CC2)c1O
 : 3	1	-9	0	-22	0.7	5459
> CC(=O)O[C@]1(C(C)=O)CCC2C3CCC4=CC(=NOCC(=O)O)CC[C@]4(C)C3CC[C@@]21C (some centres not stated)
 : 41	nt	-1	4	nt	13	nt
> CCOc1ccc(-c2nc(N)ncc2Oc2cccc(OC)c2)c(O)c1
 : -3	3	1	8	11	-18	3332
> CCCOc1ccc(C(=O)NNC(=S)NC(=O)c2cc(-c3ccccc3)nc3ccccc23)cc1
 : -8	-5	8	8	-6	9.2	4532
> N/C(=N\c1nc(CSc2ccccn2)cc(=O)[nH]1)Nc1ccc(Cl)cc1Cl
 : -2	5	-5	-4	-12	8.2	4442
> C=CCSC1=C(C#N)C(c2ccc(OCC)cc2)CC(=O)N1 (configuration not stated)
 : 8	-3	5	-2	-14	2.0	5804
> Cc1ccc(OC(=O)C2CSC3(C)CCC(=O)N23)c(Br)c1 (configuration not stated)
 : 2	2	-11	-11	-11	4.8	?
> Cc1onc(-c2ccccc2)c1C(=O)Nc1ccc2c(c1)OCO2
 : 0	0	0	5	-22	14	12848
> Oc1c(C(Nc2nccs2)c2ccc(C(F)(F)F)cc2)ccc2cccnc12 (configuration not stated)
 : 2	23	3	-2	25	23	4904
> CCn1c(=O)cc(OCC(=O)NCCCN2CC(C)CC(C)C2)c2ccccc21 (configuration not stated)
 : -2	2	1	-1	-16	2.8	9388
> COc1ccc(-c2oc3cccnc3c2C#CCO)cc1
 : 15	4	2	5	-12	19	4104
> Cc1cc2n(n1)SC(Nc1cc(Cl)ccc1Cl)N2 (configuration not stated)
 : -20	2	-20	-1	-40	-9.7	20196*
> Cc1ccc(NC(=O)c2ccc3nsnc3c2)c(C)c1
 : 10	-3	6	-1	-24	5.4	5015
> Cc1cc([N+](=O)[O-])nn1CCCC(=O)N1CCN(c2ccccc2)CC1
 : -1	-6	12	7	-2	-2.2	2690
> C/C(Cl)=C/CN1C(=O)C2C3C=CC(C3)C2C1=O (configuration not stated)
 : 4	1	2	-4	-11	1.8	nt
> C=CCOc1ccc(C=NNC(C)=O)cc1OCC
 : 3	nt	-3	-6	nt	2.2	nt
> Cc1cc(C)nc(SCc2ccc(C(=O)O)o2)n1
 : 6	5	nt	nt	-13	2.4	3343
> Cc1ccc(SCCN2CCC(C)CCC2=O)cc1 (configuration not stated)
 : -1	6	12	10	-48	6.1	3491
> CCOc1ccc(NC(=O)N(C2CCCCC2)C2CCN(C(C)=O)CC2)cc1
 : -7	1	-6	1	0	4.3	4262
> CCC(NC(=O)c1cc(COc2ccc(OC)cc2Cl)on1)c1ccncc1 (configuration not stated)
 : 6	13	11	-21	-46	-2.3	6003
> O=C(Cc1ccccc1)N/N=C/c1cc(Br)cc(Br)c1O
 : nt	0	nt	nt	-4	nt	3431
> COc1ccc2[nH]cc(C=NNS(=O)(=O)c3ccc(C)cc3)c2c1
 : -1	nt	3	1	nt	7.7	nt
> COCCCNC(=O)c1cccc(C(=O)NCCCOC)c1
 : 4	-2	-2	-4	-39	-2.2	15934

In the list so far, 6 have a cyano group.
Values in the order: ugtP null kill	BJeLR lethal	Mtb hypoxia inh	Mtb hypoxia inh growth	PrP UTR inh	Sa RN4220 lethal	Bead autofluor
> N#Cc1c(-c2cccnc2)c2c([nH]c1=O)-c1ccccc1OC2
 : 6	6	10	1	-12	9.0	3869
> CC1=C(C(=O)OCc2ccccc2)C(c2ccsc2)C(C#N)=C(N)O1 (configuration not stated)
 : -4	0	7	4	-3	3.9	3228
> COc1cc(/C=C/C(=O)OCC(=O)NC(=O)NC(C)C)ccc1OCC#N
 : 8	1	6	7	-22	4.9	10138
> Cc1nc(NCCc2ccccc2)c(C#N)c(C)c1[N+](=O)[O-]
 : -7	3	1	-6	-7	2.5	2326
> N#Cc1ccc(-c2nnnn2-c2ccc3c(c2)OCO3)cc1
 : 4	24	nt	nt	4	0.8	3426
> C=CCSC1=C(C#N)C(c2ccc(OCC)cc2)CC(=O)N1 (configuration not stated)
 : 8	-3	5	-2	-14	2.0	5804

Compound activity deposited in PubChem BioAssay by several laboratories.
